Bioassay records: PubChem, National Center for Advancing Translational Sciences (NCATS)
Rango complex inh: Rango-importin beta binding inhibition | Potency, µM (top dose mostly 92.2 µM), without a hit: at the highest dose inhibition of complex formation | AID 540263 | Rango CFP/YFP FRET sensor + importin beta, 45 min | actives 0.031% (n = 340,000); active = rising FRET ratio curve, often small or poorly fitted; inconclusive = mostly compound fluorescence or quenching in the first reads; inactive = flat curves in all reads;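 also: potency is read from the fitted curve at half-maximal effect; 0% = DMSO wells and 100% = buffer wells lacking importin beta; nearly all actives have a fitted effect of over 15% in size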
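FRET biosensor Rango (snurportin 1 IBB between N-terminal EYFP and C-terminal Cerulean), 50 nM in PBS/1 mM DTT/0.02% Tween-20/0.1% BSA, preincubated 5 min RT with compound; 0.125 microM importin beta added, 45 min RT, CFP/YFP FRET ratio read.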
Rango dissoc inh: prevents RanGTP from dissociating the Rango-importin beta complex; O95149+P62826; Potency, µM (doses to about 46.1 µM), without a hit: top-dose activity change, negative = inhibition; actives 0.071% (n = 340,000); Biochemical FRET Rango-importin beta, RanGTP-induced dissociation; active means falling FRET ratio curve, often poorly fitted, with flat reads before Ran was added; inconclusive means other falling curves, or compound fluorescence or quenching; inactive means flat or rising ratio curve;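 also: potency is read from the fitted curve at half-maximal effect; % of control where 0% means no effect; nearly all actives have a fitted effect of over 45% in size; -100% = wells without RanGTP and RCC1; the record marks most hits as doubtful in a second field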
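Rango FRET biosensor (snurportin-1 IBB flanked by N-terminal EYFP and C-terminal CFP10) at 0.1 uM, with 0.25 uM importin beta in PBS, 1mM DTT, 0.02% Tween-20, 0.1% BSA. 0.6 uM Ran, 2mM GTP and 0.2 uM RCC1 were then added for 45 min at room temperature. Inhibition read as loss of FRET rise.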
miR-21 reporter: miR-21 reporter, rising signal. HeLa miR-21 FLuc reporter, luciferase, 48 h. Potency, µM (series often up to 38.3 µM), inactives show top-dose reporter change, positive = more light. 340,000 tested, under 10 active. AID 2288; active = well fitted rising curve with a large enough effect; inconclusive = small, poorly fitted or top-dose-only effect; inactive = no such curve, though single readings can be large or run the other way;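 also: % of control where 0% means no effect; miR-21 action dims this reporter so a rising signal means less miR-21 action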
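Compounds were titrated across several concentrations (up to approximately 40 uM) and incubated 48 hours with HeLa miR-21-FLuc reporter cells (miR-21 target sequence downstream of FLuc, endogenous miR-21). Readout was firefly luciferase luminescence after lytic detection reagent.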
GLA inh pH 4.5: inhibitors of human alpha-galactosidase A at pH 4.5. P06280. purified enzyme, 4-MU-alpha-Gal fluorescence, pH 4.5. AID 1467. activity change, negative = inhibition, % at 105 µM. 230,000 tested, under 10 active; inconclusive = small, poorly fitted or top-dose-only inhibition, or a rising curve; inactive = flat fitted curve, though single readings scatter; no compound was filed as active;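 also: 0% = full activity with enzyme and -100% = basal without enzyme; dose as in the result columns while the protocol names 77 µM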
Target sequence (P06280 whole entry, looked up): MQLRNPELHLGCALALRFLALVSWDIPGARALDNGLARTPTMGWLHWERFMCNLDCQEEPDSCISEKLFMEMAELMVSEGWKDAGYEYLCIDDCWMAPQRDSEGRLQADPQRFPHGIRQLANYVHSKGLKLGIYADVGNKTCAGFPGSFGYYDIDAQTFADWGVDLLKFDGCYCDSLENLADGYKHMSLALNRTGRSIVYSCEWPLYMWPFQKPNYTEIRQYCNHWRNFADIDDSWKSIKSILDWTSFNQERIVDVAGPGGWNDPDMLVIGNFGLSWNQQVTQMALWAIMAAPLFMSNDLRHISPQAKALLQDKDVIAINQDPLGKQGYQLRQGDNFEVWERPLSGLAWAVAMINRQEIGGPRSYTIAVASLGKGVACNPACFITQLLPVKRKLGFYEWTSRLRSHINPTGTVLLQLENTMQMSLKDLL
Active calls of the source: *; u = inconclusive; x = not tested or not shown; & = joins results of further samples. Only part of the results is shown; rates above refer to the full screens.

smiles	Rango complex inh	Rango dissoc inh	miR-21 reporter	GLA inh pH 4.5
C=CCNC(=S)Nc1ccc(OC(=O)Nc2ccc(Cl)c(Cl)c2)cc1	-0.6%	-4%	24%	0
O=C(O)C1C2c3ccccc3C(O)C1(C(=O)O)c1ccccc12 (stereo not drawn)	-0.2%	-1%	x	x
CCN(CC)C1=NC(=[N+](CC)CC)c2ccccc21	-3.3%	-6%	28%	-4
C=Cn1ccnc1P(=S)(c1c(C)nn(-c2ccccc2)c1C)c1nccn1C=C	5.3%	-9%	0%	2
NC(=O)CSP(=O)(c1ccccc1)c1ccccc1	2.0%	u	-5%	-4
CC1(C)C(C(=O)N2CCN(C(=O)c3ccccc3)CC2)C1(C)C	-1.2%	3%	2%	x
CCN(CC)CCCN=Cc1c(O)n(CCc2ccc(OC)c(OC)c2)c(=O)[nH]c1=O	-1.6%	11%	-2%	10
CC1=C2CCC3C(CCC4=CC(=O)CCC43C)C2CC1 (stereo not drawn)	3.1%	12%	x	x
CC(CCc1ccccc1)NC(C)C(O)c1ccc(O)cc1 (stereo not drawn)	3.2%	17%	-10%	2&-23
CCc1ccc(NC(=O)CN2CC(c3ccccc3)CC2=O)cc1 (stereo not drawn)	-0.3%	-12%	-5%	-7
CC(c1ccccc1)n1cncc1C(=O)O (stereo not drawn)	-0.4%	0%	-3%	0
CCN(C(=O)COC(=O)c1cn(C)c2ccccc12)c1ccc(F)cc1	4.6%	4%	x	x
O=C(Nc1ccncc1)c1cccn(Cc2ccccc2)c1=O	-1.1%	-14%	20%	-7
OCC12COC3c4ccccc4C(OC1)N32 (stereo not drawn)	2.3%	6%	-6%	-6
CCc1ccc(NC(=O)C(C)OC(=O)c2c(C)nn(Cc3ccccc3)c2Cl)cc1 (stereo not drawn)	5.8%	-3%	-5%	-11
CC12CCC(=O)C=C1CCC1C2CCC2(C)C(O)CCC12 (stereo not drawn)	1.9%	5%	-21%	0
COC(=O)C1=C(c2ccc(F)cc2OCc2ccccc2)C[C@@H]2CC[C@H]1N2C(=O)NCC1CC1	4.2%	-2%	x	x
COC(=O)C1=C(c2cccc(OC)c2OC)C[C@@H]2CC[C@H]1N2C(=O)NCC1CC1	1.0%	18%	x	x
COc1cc(O)cc2c1cc([N+](=O)[O-])c1c(C(=O)O)cc3c(c12)OCO3	u	u	x	x
CN1CCN(CCOC2c3ccccc3CSc3ccc(Cl)cc32)CC1 (stereo not drawn)	5.9%	17%	27%	1

Additional structures.
smiles	Rango complex inh	Rango dissoc inh	miR-21 reporter	GLA inh pH 4.5
CCOP(=O)(OCC)C(NC(=O)c1cccc2ccccc12)C(Cl)(Cl)Cl (stereo not drawn)	-0.3%	13%	4%	-4
CCOC(=O)C1(c2ccccc2)Oc2ccccc2C(c2ccc(OC)cc2)=C1C(=O)OC (stereo not drawn)	0.8%	15%	x	-21
O=C1NC(=O)N(Cc2ccco2)C(=O)/C1=C\c1ccc(-c2ccc(F)cc2)o1	u	-2%	5%	-2
Cc1onc(-c2c(Cl)cccc2Cl)c1/C(N)=N/OC(=O)N(C)C	-2.9%	-11%	-14%	-9
O=C(O)c1ccc(/C=C/c2nc3ccccc3c(=O)n2-c2ccc(Br)cc2)cc1	0.5%	11%	10%	x
CC=C(C)C1(CCC)C(=O)NC(=S)NC1=O	-0.8%	-6%	x	x
Cc1cccc(N/N=C/c2c(O)[nH]c(=S)[nH]c2=O)c1	u	8%	x	x
CCOC(=O)C1=C(N)OC2=C(C(=O)CCC2)C12C(=O)Nc1ccccc12 (stereo not drawn)	-0.9%	7%	0%	1
Cc1ccc(-n2c(C)nc3cc(Cl)ccc3c2=O)nc1	2.0%	-8%	-15%	x
Oc1ccc2c3c1O[C@H]1c4oc5ccccc5c4C[C@@]4(O)[C@@H](C2)N(CC2CC2)CC[C@]314	-1.4%	-9%	13%	-11
CCCCCOc1ccc(C)cc1CN(CCCl)CCCl	-0.5%	-5%	8%	-12
COC(=O)C1=C(c2ccc(S(C)(=O)=O)cc2)C[C@@H]2CC[C@H]1N2C(=O)NC1CCCCC1	0.5%	-16%	x	x
CCCOC(=O)COc1cc(C)cc2oc(=O)c3c(c12)CCC3	-3.7%	1%	2%	3
O=C(c1cc2cc(Cl)ccc2[nH]1)N1CCC2(CC1)OCCO2	0.2%	-4%	-31%	x
O=C(c1cccnc1)C1CCCN(Cc2nc(-c3cnccn3)no2)C1 (stereo not drawn)	-1.0%	18%	-3%	-4
COc1ccccc1N1CCN(Cc2c(F)cccc2F)CC1	3.5%	0%	-5%	-6
NNC(=O)c1ccc(Cl)cc1	5.9%	0%	-11%	-1
CC(C)CC(=O)NC(Oc1ccc(Cl)cc1)C(Cl)(Cl)Cl (stereo not drawn)	-1.4%	2%	-4%	4
Clc1ccc(COC(Cn2ccnc2)c2ccc(Cl)cc2Cl)c(Cl)c1 (stereo not drawn)	3.8%&2.4%	19%&2%	u	-3&0&6
CSc1ccc(C(=O)C2CCCN(Cc3cc4ccccc4[nH]3)C2)cc1 (stereo not drawn)	2.6%	-10%	13%	-5

More compounds.
smiles	Rango complex inh	Rango dissoc inh	miR-21 reporter	GLA inh pH 4.5
CCn1c(O)c(C(c2ccccn2)c2c(O)n(CC)c(=S)[nH]c2=O)c(=O)[nH]c1=S	-1.0%	-3%	0%	-7
O=C(COc1ccccc1)NCCc1cnc[nH]1	-4.1%	-5%	1%	x
O=C1CC(=O)N(c2cccc(Br)c2)C(=O)N1	3.6%	6%	0%	x
CC(=NCc1ccc2c(c1)OCO2)c1c(O)n(Cc2ccccc2)c(=O)[nH]c1=O	u	1%	-2%	-1
CN(c1ccccc1)P(=O)(N1CC1)N1CC1	0.8%	8%	x	x
N=C1SCC(=O)N1Cc1ccccc1	-1.1%	-21%	-1%	-4
CCc1sc(C(=O)N2CCC3(CC2)OCCO3)cc1Br	-3.2%	-17%	-14%	-18
c1ccc(OCCSc2nc3ccccc3[nH]2)cc1	-1.0%	u	-36%	4
CSc1ccc(CNC(C)C(O)c2ccccc2)cc1 (stereo not drawn)	-1.7%	17%	-9%	-3
CCN1C[C@]2(COC)CC[C@H](O)[C@@]34C5C[C@H]6[C@H](O)C5[C@](O)(C[C@H]6OC)[C@@H]([C@H](OC)C23)[C@@H]14 (stereo partly drawn)	2.3%	5%	x	x
O=c1[nH]c(=S)n(C2CC2)c(O)c1C=NCCc1ccccc1	0.9%	1%	6%	-3
CCN1C[C@]2(OC(=O)c3ccccc3NC(C)=O)CCC(OC)C34C5C[C@H]6C(OC)[C@]5(O)[C@](O)(C[C@@H]6OC)C(C[C@@H]32)[C@H]14 (stereo partly drawn)	-0.1%	0%	-4%	x
O=C1NC(=S)NC(=O)C1=Cc1ccc(OCC(=O)N2CCCC2)cc1	3.1%	2%	-10%	x
CNCC(O)c1ccc(O)cc1 (stereo not drawn)	0.3%	-10%	-15%	-4&-5
COc1ccc(N2C(=O)/C(=C/c3ccc(N(C)C)o3)C(=O)NC2=S)cc1	14%	-11%	-6%	x
CCN1CC2([N+](=O)[O-])CC=C(Cl)C([N+](=O)[O-])(C1)C2 (stereo not drawn)	0.3%	1%	0%	6
O=C1OCc2cc(N=Nc3c(O)[nH]c(=O)[nH]c3=O)ccc21	u	-5%	-4%	-10
COc1ccc(N2C(=O)CC(=O)NC2=O)cc1	-2.6%	-12%	-9%	10
CCN(CC)CC(=O)Nc1ccc(Cl)cc1C(=O)c1ccccc1	0.5%	-11%	x	x
C=C(C=O)CC1CC(O)[C@]2(C)OC3C[C@@H]4OC5C[C@]6(C)O[C@]7(C)CCC8OC9C[C@]%10(C)OC(/C(C)=C\CO)C(O)CC%10OC9CC(C)C8OC7CC6O[C@]5(C)C/C=C\C4OC3CC2O1 (stereo partly drawn)	-2.5%	0%	x	x

The list goes on:
smiles	Rango complex inh	Rango dissoc inh	miR-21 reporter	GLA inh pH 4.5
CC(C)c1ccc(-n2c(O)c(/C=N/N3CCOCC3)c(=O)[nH]c2=S)cc1	u	11%	-8%	-11
Nc1ccc([As](=O)(O)O)cc1	0.2%	-14%	-8%	x
CCc1c(C)nc(N)nc1N1N=C1SC(C(C)=O)C(C)=O	2.6%	-1%	8%	2
O=C(N/N=C/c1c(O)n(CCC2=CCCCC2)c(=O)[nH]c1=O)c1ccccc1	0.3%	-13%	-7%	-2
CCc1ccc(OCC(=O)N2CCN(CC(=O)Nc3ccccc3Cl)CC2)cc1	1.6%	22%	x	x
COC(=O)c1ccccc1-n1c(C)nc2ccccc2c1=O	1.0%	10%	-12%	-6
Cc1nn(Cc2ccccc2)c(Cl)c1C(=O)OCC(=O)N1CCCC1	-1.6%	4%	-11%	3
CC(=O)OCC[N+](C)(C)C	-0.1%&0.2%&1.4%	7%&8%&8%	2%&2%	2&4
CCOC(=O)C1=C(N)OC2=C(C(=O)CCC2)C12C(=O)N1c3c(ccc(C)c32)C(C)=CC1(C)C (stereo not drawn)	-1.1%	-12%	13%	-23
CCN(C=C1CC2C3CC=C4CC(O)CCC4(C)C3CCC2(C)C1=O)CC (stereo not drawn)	6.5%	4%	x	x
O=C(c1cc2cc(Br)ccc2[nH]1)N1CCC2(CC1)OCCO2	-1.9%	8%	-32%	x
O=c1c2ccccc2[nH]c(=S)n1-c1ccc2c(c1)OCCO2	4.4%	-14%	-63%	3
CCOc1cccc(OCC)c2c(C)[n+](CC3CCCO3)c(C)c1-2 (stereo not drawn)	u	-4%	-4%	-3
CCCCn1c(O)c(C(C)=NCCc2c[nH]c3ccccc23)c(=O)[nH]c1=O	1.3%	-14%	11%	-2
Cc1ccccc1-n1c(O)c(/C=N/NC(=O)c2ccccc2O)c(=O)[nH]c1=S	u	u	-20%	-1
CCCCCCCCC(=O)NCc1ccc(O)c(OC)c1	2.7%	14%	x	4&-5
CCCCN=Cc1c(O)n(-c2c(C)cc(C)cc2C)c(=O)[nH]c1=O	5.6%	0%	-5%	-11
CN(C)C(=O)Oc1ccc2ccccc2c1Cl	3.7%	1%	-23%	-3
COC(=O)C1=C(c2ccc(-c3ccccc3)c(F)c2)C[C@@H]2CC[C@H]1N2C(=O)NCc1cc(C)oc1C(F)(F)F	0.3%	u	x	x
CC/C(=N\N1CCCCCC1)c1c(O)n(-c2ccc(C)cc2)c(=O)[nH]c1=O	3.2%	-16%	-5%	-11

Part of the list above in a different format:
> COC(=O)c1ccccc1-n1c(C)nc2ccccc2c1=O
- Rango complex inh: 1.0%
- Rango dissoc inh: 10%
- miR-21 reporter: -12%
- GLA inh pH 4.5: -6

> Cc1nn(Cc2ccccc2)c(Cl)c1C(=O)OCC(=O)N1CCCC1
- Rango complex inh: -1.6%
- Rango dissoc inh: 4%
- miR-21 reporter: -11%
- GLA inh pH 4.5: 3

Next entries.
smiles	Rango complex inh	Rango dissoc inh	miR-21 reporter	GLA inh pH 4.5
CC(=O)c1ccc(NC2=NCCCS2)cc1	0.2%	-7%	-21%	x
CCN(CC)C(=O)c1ccc(NC(=O)CSc2nnnn2-c2cc(OC)ccc2OC)cc1	-0.7%	1%	11%	-7
CC(=O)C1CCC2C3CC(O)C4CC(O)CCC4(C)C3CCC12C (stereo not drawn)	4.4%	2%	x	x
NC(CC(=O)O)C1CCCCC1 (stereo not drawn)	x	x	4%	4
Cc1ccc(-n2c(O)c(/C=N/Nc3ccccc3)c(=O)[nH]c2=O)cc1C	5.1%	12%	8%	-4
CCCCn1c(O)c(C=Nc2c(C)n(C)n(-c3ccccc3)c2=O)c(=O)[nH]c1=O	-0.1%	0%	-3%	6
C=CCN1C(=O)NC(=O)/C(=C/c2ccc(OCC(=O)Nc3ccc(C)cc3)cc2)C1=O	-0.4%	-1%	-10%	x
CN1CCN(/N=C/c2c[nH]c3ccccc23)CC1	-1.0%	1%	3%	4
COc1ccc(NC(=S)NC(NC(=O)CF)C(Cl)(Cl)Cl)c([N+](=O)[O-])c1 (stereo not drawn)	3.9%	-4%	0%	-4
O=C1c2ccccc2C(=O)N1Cc1nc2ccccc2c(=O)n1-c1ccccn1	-2.6%	0%	-4%	3
